Ecoli growth = E. coli growth inhibition, primary screen, OD600 | OD600 absorbance (no concentration beside the values) | Escherichia coli growth, 23 h; active compounds read low | hit rate 0.21% among 330,000 | AID 1053175, 2014;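 active means OD600 absorbance below the run mean of sample wells minus 3.6 SD, in any replicate, cut at about 0.56 in these data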;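 further: stock transfer was 300 nL into about 60 µL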
Active calls of the source: *; & = joins results of further samples.

cpd	canonical_smiles	Ecoli growth
1	COC(=O)NC(c1ccccc1)[C@@]1(C)CC1C(C)C(=O)Nc1ccc2ccccc2c1 (stereo partly drawn)	0.66
2	CN(Cc1ccccc1)C(=O)c1[nH]cnc1C(=O)NC(CCCCNC(=O)OC(C)(C)C)C(=O)OC(C)(C)C (stereo not drawn)	0.7
3	CC1(C)CC[C@]2(C(=O)OC3OC(CO)C(O)C(O)C3O)CC[C@]3(C)C(=CCC4[C@@]5(C)CCC(OC6OC(C(=O)O)C(OC7OCC(O)C(O)C7O)C(O)C6O)C(C)(C)C5CC[C@]43C)C2C1 (stereo partly drawn)	0.62
4	NC1=NCC(Cc2ccccc2)N1CCc1cccc(F)c1 (stereo not drawn)	0.64
5	CS(=O)(=O)c1ccc(CNC(=O)C2(C(F)(F)F)CC(=CCc3ccccc3)CCCO2)cc1 (stereo not drawn)	0.65
6	NC(=O)CNC(=O)C1CC2(CC(c3ccccc3)=NO2)CN1C(=O)c1ccc(Br)cc1 (stereo not drawn)	0.71
7	CC1CNC(=O)C(=O)N1CC(Cc1ccc(O)cc1)NC(=O)CC12CC3CC(CC(C3)C1)C2 (stereo not drawn)	0.65
8	CC1CC2C3CCC4=CC(=O)C=C[C@]4(C)[C@@]3(Cl)C(O)C[C@]2(C)[C@@]1(O)C(=O)CO (stereo partly drawn)	0.68
9	CC(C)(C)OC(=O)N1CCC(C(=O)NC(Cc2ccccc2)C(=O)O)CC1 (stereo not drawn)	0.69&0.69
10	CCOC1OC(C(=O)NCc2nc3ccccc3[nH]2)=CC(c2ccccc2)C1CCCO (stereo not drawn)	0.69&0.68
11	COc1ccc(S(=O)(=O)Nc2ccc3c(c2)C(=O)N(C(C)CO)CC(C)C(CN(C)C(=O)Nc2ccc(C(F)(F)F)cc2)O3)cc1 (stereo not drawn)	0.67
12	CC1(C)CC(=O)C=C(C=Cc2ccccc2)C1	0.65
13	C=CCOC(=O)C1=CC(c2cn(C(C)=O)c3ccccc23)CC(OCCCCO)O1 (stereo not drawn)	0.68&0.71
14	CN1CC2C3C(=O)N(Cc4ccccc4)C(=O)C3[C@](Cc3ccccc3)(C1=O)N2C(=O)c1ccc(Br)cc1 (stereo partly drawn)	0.67
15	CCN1C(=O)C2CCC3C(=NOCC(C)C(OCc4ccccc4)C(C)C)CC(O)C(O)C3C2C1=O (stereo not drawn)	0.69
16	CC(C)(C)OC(=O)NC(Cc1ccccc1)C(=O)N1CCC(C(=O)O)CC1 (stereo not drawn)	0.67&0.71
17	CC(C)CC(CO)N1CCN(Cc2ccccc2)CCC1=O (stereo not drawn)	0.7
18	CC(C)NC(=O)Nc1ccc2c(c1)C(=O)N(C(C)CO)CC(C)C(CN(C)S(=O)(=O)c1ccc(F)cc1)O2 (stereo not drawn)	0.66
19	Cc1ccc2c(c1)C1C(CO2)C(c2ccccc2)[C@]2(C)C(=O)N(Cc3ccco3)CC(=O)N12 (stereo partly drawn)	0.65
20	O=C(O)C1=CC(c2cccs2)CC(OCc2ccc(CO)cc2)O1 (stereo not drawn)	0.68
21	O=C1CCC(O)CCN1CCC(Sc1ccc(Br)cc1)c1ccccc1 (stereo not drawn)	0.7
22	O=C(NC1CC1)C1=CC(C2CC2)CC(OCCCCO)O1 (stereo not drawn)	0.69&0.68
23	O=C(NC1CC1)C1=CC(c2coc3ccccc3c2=O)CC(OCc2ccc(CO)cc2)O1 (stereo not drawn)	0.7&0.66
24	OCC[n+]1ccc(C=Cc2c[nH]c3ccccc23)cc1	0.69
25	COc1ccc(C2CC(=O)C=C(c3ccc4ncccc4c3)C2)cc1OC (stereo not drawn)	0.65

Values by screen from above:
Ecoli growth, nos. 10–16 → 0.69&0.68, 0.67, 0.65, 0.68&0.71, 0.67, 0.69, 0.67&0.71

Additional compounds:
cpd	canonical_smiles	Ecoli growth
26	CON=CC(C#N)=Cc1cc(C(=O)c2ccc(F)cc2)cn1C	0.72
27	O=C1C(=O)N(CCN2CCOCC2)C(c2cccnc2)C1=C(O)c1ccc(Cl)cc1 (stereo not drawn)	0.72
28	COc1ccc2c(c1)OC(c1cccc(C(F)(F)F)c1)C(O)C2=O (stereo not drawn)	0.66
29	CC(=O)C1=C(C)N(CC2CC2)C(=O)NC1c1ccccc1 (stereo not drawn)	0.66
30	COC(=O)C1=C(C)N(Cc2ccccc2)C(=O)NC1c1ccc(Br)cc1 (stereo not drawn)	0.71
31	C=C(C)C(=O)Nc1cccc(C2=NOC3(C2)CC(C(N)=O)N(C(=O)C=CC=CC)C3)c1 (stereo not drawn)	0.71
32	Cc1cc(C=C2SC(=S)NC2=O)c(C)[nH]1	0.71
33	CCCCC1COCCS(=O)(=O)N1Cc1cccc(Cl)c1 (stereo not drawn)	0.66
34	CNC(=O)c1[nH]cnc1C(=O)NC(CCCCNC(=O)OC(C)(C)C)C(=O)OC(C)(C)C (stereo not drawn)	0.7
35	CC1CN(C(C)CO)C(=O)c2cc(NC(=O)Nc3ccccc3)ccc2OC1CN(C)S(=O)(=O)c1ccc(F)cc1 (stereo not drawn)	0.63
36	CC1CN(C(C)CO)C(=O)c2cc(NS(=O)(=O)c3ccc(F)cc3)ccc2OC1CN(C)S(=O)(=O)c1cccs1 (stereo not drawn)	0.67
37	CC1CN(C(C)CO)C(=O)c2cccc(NC(=O)C3CC3)c2OC1CN(C)S(=O)(=O)c1cccs1 (stereo not drawn)	0.71
38	NC(=NOC(=O)c1cccc(Cl)c1)c1ccccn1	0.67
39	CC(C)NC(=O)N(C)CC1Oc2ccc(NC(=O)Nc3ccc(C(F)(F)F)cc3)cc2CC(=O)N(C(C)CO)CC1C (stereo not drawn)	0.68
40	C#CCOCCOCCOCCNc1nc(N2CCN(C(=O)CCCCCCCCCCNC(=O)C(CO)n3cc(CCCSC)nn3)CC2)nc(N2CCN(C(=O)CCCCCCCCCCNC(=O)C(CCCCN)n3cc(CCO)nn3)CC2)n1 (stereo not drawn)	0.61
41	CC=CC(=O)Nc1cccc(C2=NOC3(C2)CC(C(N)=O)N(C(=O)COc2ccc(Cl)cc2)C3)c1 (stereo not drawn)	0.67
42	CCCN1CCC(=O)N(C(CSc2ccc(C)cc2)CC(C)C)CC1 (stereo not drawn)	0.68
43	CC(C)NC(=O)C1C[C@@]1(C)C(NC(=O)OCc1ccccc1)c1ccccc1 (stereo partly drawn)	0.72
44	CC(=O)n1cc(C2C=C(C(=O)NCc3ccccc3)OC(OCc3ccc(CO)cc3)C2)c2ccccc21 (stereo not drawn)	0.74&0.74
45	CCCCC=CC(NC(=O)CCc1ccccc1)c1ccccc1 (stereo not drawn)	0.67
46	COc1ccc(CNC(=O)C(C)C2C[C@@]2(C)C(NC(=O)OCc2ccccc2)c2ccccc2)cc1OC (stereo partly drawn)	0.72
47	CCOC(=O)N1C2=NC(C(=O)OC)=C(C(=O)OC)C3N(C)c4ccccc4[C@]23CC1C(=O)OC (stereo partly drawn)	0.66
48	CCCCCCCCN1C(CC(=O)O)c2cc(F)ccc2S1(=O)=O (stereo not drawn)	0.68
49	COc1ccc2c(c1)c1c(n2C)C2CC=C(CO)C(C1)N2C (stereo not drawn)	0.66
50	CCn1ncc(C2CC3CN(Cc4cccc(Cl)c4)C(=O)[C@]34CCCN24)c1C (stereo partly drawn)	0.71

Taken from above:
Ecoli growth result of CCOC(=O)N1C2=NC(C(=O)OC)=C(C(=O)OC)C3N(C)c4ccccc4[C@]23CC1C(=O)OC (stereo partly drawn) → 0.66
Ecoli growth result of CC=CC(=O)Nc1cccc(C2=NOC3(C2)CC(C(N)=O)N(C(=O)COc2ccc(Cl)cc2)C3)c1 (stereo not drawn) → 0.67

The main list resumes with the 6 entries that preceded the break.
cpd	canonical_smiles	Ecoli growth
45	CCCCC=CC(NC(=O)CCc1ccccc1)c1ccccc1 (stereo not drawn)	0.67
46	COc1ccc(CNC(=O)C(C)C2C[C@@]2(C)C(NC(=O)OCc2ccccc2)c2ccccc2)cc1OC (stereo partly drawn)	0.72
47	CCOC(=O)N1C2=NC(C(=O)OC)=C(C(=O)OC)C3N(C)c4ccccc4[C@]23CC1C(=O)OC (stereo partly drawn)	0.66
48	CCCCCCCCN1C(CC(=O)O)c2cc(F)ccc2S1(=O)=O (stereo not drawn)	0.68
49	COc1ccc2c(c1)c1c(n2C)C2CC=C(CO)C(C1)N2C (stereo not drawn)	0.66
50	CCn1ncc(C2CC3CN(Cc4cccc(Cl)c4)C(=O)[C@]34CCCN24)c1C (stereo partly drawn)	0.71
51	CC[C@]12C(=O)N(C)CC(C3C(=O)N(C)C(=O)C31)N2C(=O)c1ccc(F)cc1 (stereo partly drawn)	0.71
52	Cc1ccc(C2CC=C(C(=O)O)CN2S(=O)(=O)c2ccc(C)cc2)cc1 (stereo not drawn)	0.67
53	CCOC(=O)C1=CCC2c3c(c4ccccc4n3C)C(=O)C1N2S(=O)(=O)c1ccc(C)cc1 (stereo not drawn)	0.67
54	COc1ccc(SCCN2CCC(C)CCC2=O)cc1 (stereo not drawn)	0.66
55	CCN1C(=Cc2ccc3ccccc3[n+]2CC)Sc2cc(C)ccc21	0.36*
56	CCCCCC=CC1=CC(=O)CC(c2ccc(Cl)cc2)C1 (stereo not drawn)	0.69
57	CCN1C(=O)C2C(c3ccc(-c4ccc(F)cc4)cc3)N[C@@](CC(C)C)(C(=O)OC)C2C1=O (stereo partly drawn)	0.69
58	CCN(CC)C(=O)c1[nH]cnc1C(=O)NC(Cc1ccccc1)C(=O)OC(C)(C)C (stereo not drawn)	0.69
59	CC(C)(C)OC(=O)NCCCCC(NC(=O)c1[nH]cnc1C(=O)NC(Cc1ccccc1)C(=O)OC(C)(C)C)C(=O)OC(C)(C)C (stereo not drawn)	0.73
60	CCOC1OC(C(=O)Nc2ccccc2)=CC(c2csc3ccccc23)C1CCCO (stereo not drawn)	0.73&0.72
61	Cc1c(C=CC(=O)c2ccc(C(C)C)cc2)cnn1C	0.69
62	CCOC(=O)C1C(=O)C=C(C=Cc2ccc(N(C)C)cc2)CC1c1ccccc1 (stereo not drawn)	0.73
63	CC(C)(C)N1C(=O)C2C(c3ccc(Br)cc3)N3C(=O)N(c4ccccc4)C(=O)[C@@]3(Cc3ccccc3)C2C1=O (stereo partly drawn)	0.71
64	CC1CN(C(C)CO)C(=O)c2cccc(NS(=O)(=O)c3cn(C)cn3)c2OC1CN(C)Cc1ccc(C(=O)O)cc1 (stereo not drawn)	0.68
65	Cc1ccc(-c2ccc(C3C4C=CCC[C@@]4(C)C(=O)N3Cc3ccccc3)c(F)c2)cc1 (stereo partly drawn)	0.72
66	COc1cccc(N2C(CC(=O)O)c3ccccc3S2(=O)=O)c1 (stereo not drawn)	0.67
67	CCOC(=O)C1C2COc3ccc(OC)cc3C2N2C(=O)CN(Cc3ccccc3)C(=O)[C@@]12C (stereo partly drawn)	0.69
68	COc1ccc(S(=O)(=O)Nc2ccc3c(c2)CC(=O)N(C(C)CO)CC(C)C(CN(C)S(=O)(=O)c2ccc(F)cc2)O3)cc1 (stereo not drawn)	0.68
69	CCOC(=O)C1C2COc3ccc(Br)cc3C2N2C(=O)c3cc(F)c(F)cc3NC(=O)[C@@]12C (stereo partly drawn)	0.7
70	CC1CC=CC2C1C(=O)N(Cc1ccccc1)C2c1ccc(F)c(C=Cc2ccccc2)c1 (stereo not drawn)	0.74
71	CCN1C(=O)C2C(c3ccc(-c4ccc(C(C)=O)cc4)cc3)N[C@@](Cc3ccccc3)(C(=O)OC)C2C1=O (stereo partly drawn)	0.74
72	CC(C)CC(NC(=O)C1OC1C(=O)O)C(=O)NCCCCN=C(N)N (stereo not drawn)	0.68
73	COC(=O)C1CC2CCC(O)CC2N1Cc1ccc(C(C)(C)C)cc1 (stereo not drawn)	0.7
74	C=CCNC(=O)C=Cc1cccs1	0.72
75	CCN1C(=O)C(=Cc2ccc(C)s2)SC1=Nc1ccc(OC)cc1	0.73
76	CCCOc1ccc(-c2nn(-c3ccccc3)cc2C=C2SC(N)=NC2=O)cc1	0.72
77	C=C(C)C(=O)N1CC2(CC(c3cccc(NC(=O)COc4ccc(Cl)cc4)c3)=NO2)CC1C(N)=O (stereo not drawn)	0.67
78	CCCCc1cn(CC2CCC(C3CCC(Cn4cc(CCCC)nn4)O3)O2)nn1 (stereo not drawn)	0.7
79	CC(C)NC(=O)N(C)CC1Oc2ccc(NS(=O)(=O)c3cccs3)cc2C(=O)N(C(C)CO)CC1C (stereo not drawn)	0.71
80	O=C1C=C(c2cccc(Br)c2)CC(c2ccc3c(c2)OCO3)C1 (stereo not drawn)	0.73
81	COC(=O)CC=CC(C)C(C=NOC(C)c1cn(C2COCC2O)nn1)NS(=O)(=O)c1ccc(C)cc1 (stereo not drawn)	0.7
82	Cc1nc2ccccc2c(=O)n1NC(=O)C=Cc1ccccc1	0.71
83	CC=Cc1ccc(OCCCNCC(C)O)c(OC)c1 (stereo not drawn)	0.67
84	COc1ccc(C(O)=Cc2nc3ccccc3n(-c3ccccc3)c2=O)cc1	0.69
85	O=C1C=C(c2cccc(CO)c2)CC(c2ccc3c(c2)OCO3)C1 (stereo not drawn)	0.65
86	[N-]=[N+]=NCC(Cc1ccccc1)N1CCN(Cc2ccccc2)CCC1=O (stereo not drawn)	0.7
87	CCCN1CCC(=O)N(C(CSc2ccc(Br)cc2)Cc2ccccc2)CC1 (stereo not drawn)	0.64
88	COC(=O)C1=C(C(=O)OC)C2N(Cc3ccccc3)c3ccccc3[C@@]23CC(C(=O)OC)N(C(C)=O)C3=N1 (stereo partly drawn)	0.65
89	COC(=O)c1ccc(C2CC(=O)O2)cc1 (stereo not drawn)	0.67
90	NCCCCC1CNC(=S)N1CCc1cc(C(F)(F)F)cc(C(F)(F)F)c1 (stereo not drawn)	0.66
91	COC(=O)c1ccc(C23CC4(C2)C(CN(C)C4c2ccccc2)C3c2ccc(Cl)nc2)cc1 (stereo not drawn)	0.63
92	COc1ccc(C2CC(=O)C=C(c3ccc(O)cc3)C2)cc1OC (stereo not drawn)	0.69
93	COC(=O)C(=CC=Cc1ccccc1)NC(=O)c1ccccc1	0.67
94	COc1ccccc1C=CCN1CCCC(CCC(=O)NCc2ccc(F)c(F)c2)C1 (stereo not drawn)	0.69
95	COc1cc(NC(=O)C2CCCN(S(=O)(=O)c3cccc4cccnc34)C2)cc(OC)c1OC (stereo not drawn)	0.64

Not all compounds are listed; rates above refer to the full screens.
